# Mtb MenB inh: Mtb MenB enzyme inhibition. inhibition, %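 (about 12 µg/mL by stock and volumes)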. MenB enzyme assay, absorbance read-out; some hits fall short of the stated cut. 100,000 compounds, 0.43% hits. P9WNP5. AID 540299;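 active means mean of two replicates above 30%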;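 further: 0% = no compound and 100% = wells with inactive enzyme; the first replicate is given; strong numbers were not always called active; inactives centre near -10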
# Target sequence (P9WNP5 whole entry, looked up): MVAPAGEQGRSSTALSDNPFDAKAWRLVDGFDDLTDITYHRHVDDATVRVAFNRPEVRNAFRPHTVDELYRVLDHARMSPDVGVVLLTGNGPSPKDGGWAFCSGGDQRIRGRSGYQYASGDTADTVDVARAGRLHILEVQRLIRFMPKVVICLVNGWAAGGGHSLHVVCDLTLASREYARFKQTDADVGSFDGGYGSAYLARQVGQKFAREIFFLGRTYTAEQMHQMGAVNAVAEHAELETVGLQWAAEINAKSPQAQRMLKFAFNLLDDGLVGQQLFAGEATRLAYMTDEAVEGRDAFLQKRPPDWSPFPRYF
# Mtb MbtI inh: blocks the Mycobacterium tuberculosis siderophore enzyme MbtI | P9WFX0 | purified MbtI enzyme, fluorescence intensity read-out | inhibition, %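 (about 17 µg/mL by stock and volumes)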 | 100,000 compounds, 0.89% hits;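 active means above 50% in both replicates, above 80% if mildly self-fluorescent; inactive means the rest, strongly fluorescent compounds included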;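 further: 0% = mean of negative and 100% = mean of positive controls; one replicate is shown; some compounds called inactive have numbers as strong as hits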
# Polio RdRp inh: inhibitors of poliovirus RNA polymerase binding and polymerization. AID 588519. poliovirus polymerase elongation, fluorescence polarization; active compounds read low. 150,000 compounds, 0.66% hits. % elongation, % (compound at 16.7 µg/mL). P03300; in the data active means % elongation below about 90%; further: some results filed as inactive read as strong as hits
# Target sequence (P03300 1749-2209 limits assumed): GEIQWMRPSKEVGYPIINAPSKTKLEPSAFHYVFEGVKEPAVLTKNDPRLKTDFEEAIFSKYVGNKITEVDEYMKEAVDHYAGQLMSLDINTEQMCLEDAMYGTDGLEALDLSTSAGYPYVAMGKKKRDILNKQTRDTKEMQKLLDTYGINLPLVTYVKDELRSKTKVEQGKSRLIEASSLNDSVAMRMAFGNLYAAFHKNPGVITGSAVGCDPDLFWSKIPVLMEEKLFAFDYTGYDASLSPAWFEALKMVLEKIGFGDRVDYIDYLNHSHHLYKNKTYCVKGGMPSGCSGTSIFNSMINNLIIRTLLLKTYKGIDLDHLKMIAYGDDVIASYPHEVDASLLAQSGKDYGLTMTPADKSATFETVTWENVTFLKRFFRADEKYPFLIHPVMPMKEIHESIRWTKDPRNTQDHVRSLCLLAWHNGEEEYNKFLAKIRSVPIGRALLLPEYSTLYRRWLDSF
# Polio RdRp inh intensity: also measured in Polio RdRp inh; calls as there; % elongation; measured here: total intensity read-out; formula for this scale not given here;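 total fluorescence in place of polarization; lower means less elongation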
# * hit, by the source's call; . = no result given; & = joins results of further samples.
# A first look:
SMILES,Mtb MenB inh,Mtb MbtI inh,Polio RdRp inh,Polio RdRp inh intensity
COc1ccc(NC(=O)c2c(Cl)nc3ccccn23)cc1,.,4,101,100
c1ccc(-c2nnc(CN3CCc4sccc4C3c3cccs3)o2)cc1 (stereo not drawn),-40,-6,106,109
Cc1ccc2c(c1)c(C)cc(=O)n2CCC(=O)O,-3,72,103,101
CCn1nc(C)c(CNC(=O)NCc2ccccc2)c1C,-2,-10,103,103
Cc1nc(-n2cccc2)sc1C(=O)NCCCc1ccccc1,-17,-2,102,104

# Main list, previewed entries included:
SMILES,Mtb MenB inh,Mtb MbtI inh,Polio RdRp inh,Polio RdRp inh intensity
COc1ccc(NC(=O)c2c(Cl)nc3ccccn23)cc1,.,4,101,100
c1ccc(-c2nnc(CN3CCc4sccc4C3c3cccs3)o2)cc1 (stereo not drawn),-40,-6,106,109
Cc1ccc2c(c1)c(C)cc(=O)n2CCC(=O)O,-3,72,103,101
CCn1nc(C)c(CNC(=O)NCc2ccccc2)c1C,-2,-10,103,103
Cc1nc(-n2cccc2)sc1C(=O)NCCCc1ccccc1,-17,-2,102,104
CSc1nnnn1-c1ccccc1,4,.,103,99
COc1cc(/C=N\n2cn[nH]c2=S)cc(OC)c1OC,-12,25,100,101
Cc1cccc(N(C)C(=O)Cn2ncc3c2-c2ccccc2OC3)c1,-12,-7,103,101
S=c1cc(Nc2ccc(Br)cc2)[nH]cn1,4,4,103,109
C=CCNS(=O)(=O)c1cccc2nonc12,7,1,99,103
CCN1C(=O)CS/C1=N\N1CCOCC1,-17,.,107,108
Cc1cc(OCC(=O)O)c(C(C)C)cc1Br,8,3,.,.
O=C(COC(=O)Cn1nnc(-c2ccccc2)n1)Nc1cc(F)ccc1F,-2,-9,108,108
O=C(O)c1ccccc1C(=O)Nc1ccc(/C=C/c2ccccc2)cc1,-21,.,110,101
CN1CCCc2cc(/C=C3\CC/C(=C/c4ccc5c(c4)N(C)CCC5)C3=O)ccc21,-37,15,76,190
CC(=O)Nc1nonc1-c1nc2ccccc2n1Cc1ccc(Cl)cc1Cl,-45,-7,102,104
Clc1ccc(CCNc2ncnc3c2oc2ccccc23)cc1,-27,-3,102,106
COc1ccc(N(C(=O)c2cc(C)cc(C)c2)C2C=CS(=O)(=O)C2)c(OC)c1 (stereo not drawn),-14,-13,104,108
Cc1nn(CC(=O)c2cc(C)n(CC(F)(F)F)c2C)c(=O)c(C#N)c1C,-11,1,102,107
C#Cc1cccc(NC(C)=O)c1,-18,-9,102,104
c1ccc2oc(-c3ccc(NCc4ccc5c(c4)OCO5)cc3)nc2c1,-53,91,106,101
CCOC(=O)c1nn(-c2ccc(C)cc2)c(=O)cc1OCC(=O)N1CCN(c2ccccc2)CC1,13,11,103,103
COc1ccc(N2CCN(C(=O)CCc3c(C)nc4nc[nH]n4c3=O)CC2)cc1,-2,4,98,102
Cc1c(O)c(=O)n(-c2ccccc2)n1C,2,-2,100,101
CC(=O)NCc1ccc(C(=O)COC(=O)c2cc3c(s2)CCCCC3)o1,-39,7,103,110
O=C(O)COc1ccccc1/C=C1/SC(=S)N(NC(=O)c2ccco2)C1=O,-281,16,99,101
CC(C)C1NC(=O)N(C2CCCCC2)C1=O (stereo not drawn),-13,-2,.,.
O=C(Nc1cccc(Oc2ccc3c(c2)C(=O)NC3=O)c1)c1ccc(Br)o1,-22,-8,103,102
CC(=O)Nc1cccc(C(=O)OC(C)C(=O)NC2(C#N)CCCCC2)c1 (stereo not drawn),-3,3,109,108
O=C(Nc1nc2ccccc2n1Cc1ccc(Cl)cc1)C1CCCCC1,-31,-7,101,101
Cc1cc(C(=O)NN2CC(O)=C(c3nc4ccccc4n3C)C2=N)c(C)o1,-7,2,98,103
Cc1nn(C)c2sc(C(=O)N(Cc3ccccn3)Cc3ccccn3)cc12,7,-1,99,108
CCSC1=N/C(=C\c2ccco2)C(=O)N1c1ccc(OC)c(Cl)c1,-52,3,105,112
COc1ccc2nc(NC(C)=O)sc2c1,-27,16,100,88
COc1ccc(Cn2c(CO)cnc2SCC(=O)N(C(C)C)C(C)C)cc1,-10,-21,101,103
O=C(OCc1ccccc1Cl)c1cc(=O)[nH]c2ccccc12,-35,-22,101,104
O=C1CC(c2ccc(O)cc2)Oc2cc(O)cc(O)c21 (stereo not drawn),-13,8,103,102
CC(C)N(C(=S)Nc1ccccc1Cl)C(C)c1ccccn1 (stereo not drawn),1,-3,102,105
Cc1cc(C)c(S(=O)(=O)Nc2ccc3c(c2)OCO3)c(C)c1,-36,-11,104,98
CCOc1ccc(NC(=S)NC(c2ccccc2)c2ccccc2)cc1,-46,-7,105,113
CNC(=O)c1c(O)c2cc(OC)c(OC)cc2[nH]c1=O,-12,16,103,101
c1ccc(Cn2nnnc2C(c2cccs2)N(Cc2cccnc2)Cc2ccco2)cc1 (stereo not drawn),-23,3,101,102
O=C(CSc1ccc(-c2ccncc2)nn1)NC1CCCC1,-4,-14,102,103
O=C(Cn1cncn1)N/N=C/c1ccccc1OC(=O)/C=C1\SC(=O)NC1=O,-48,-12,100,108
O=C(COc1ccccc1)N1CCCC2CCCCC21 (stereo not drawn),.,-7,103,102
O=C(N/N=C/c1c(Sc2nnnn2-c2ccccc2)nc2ccccn2c1=O)c1ccccc1,-66,-126,110,102
COC(=O)c1cc(OC)c(Br)c(OC)c1,-92,-25,102,104
O=C(O)C1Nc2ccccc2C2C=CCC12 (stereo not drawn),10,.,37,112
O=C(O)CCn1ncc(=O)c2ccccc21,1,8,96,95
N#CCc1cn(-c2ccccc2)nc1-c1ccccc1,.,-5,100,99

# A stretch of the results above, for reference:
SMILES,Mtb MenB inh,Mtb MbtI inh,Polio RdRp inh,Polio RdRp inh intensity
O=C(COc1ccccc1)N1CCCC2CCCCC21 (stereo not drawn),.,-7,103,102
O=C(N/N=C/c1c(Sc2nnnn2-c2ccccc2)nc2ccccn2c1=O)c1ccccc1,-66,-126,110,102
COC(=O)c1cc(OC)c(Br)c(OC)c1,-92,-25,102,104
O=C(O)C1Nc2ccccc2C2C=CCC12 (stereo not drawn),10,.,37,112
O=C(O)CCn1ncc(=O)c2ccccc21,1,8,96,95

# (next part)
SMILES,Mtb MenB inh,Mtb MbtI inh,Polio RdRp inh,Polio RdRp inh intensity
Cc1ccc(S(=O)(=O)/C(C#N)=C/c2ccc(-c3ccc(Cl)cc3)o2)cc1,-28,-36,85,125
c1ccn2cc(-c3ccc4c(c3)OCCO4)nc2c1,-13,107,104,113
O=C(Nc1ncc(Cc2cc(Cl)ccc2Cl)s1)c1ccco1,-34,5,103,102
CC[n+]1oc(-c2ccccc2)cc1C,-8,-2,101,101
C=Cc1ccc(Cn2c(C(=O)OC)cc3occc32)cc1,-29,3,104,104
CC1(C)CC2CC(C)(CN2C(=O)CSc2cccc[n+]2[O-])C1 (stereo not drawn),3,0,103,108
CC(C)Cn1c(=S)[nH]c2cc(Cl)ccc21,-27,85*,78*,78*
Nc1ccc(S(=O)(=O)N2CCCCC2c2cccnc2)cc1 (stereo not drawn),3,5,103,102
Nc1ccc(-c2ccc(N)cc2C(F)(F)F)c(C(F)(F)F)c1,20,36,102,102
O=C(CN1C2=NCCCN2c2ccccc21)c1cccs1,-21,-2,102,103
CN(CCCn1cnc2c([nH]c3ccccc32)c1=O)C1CCCCC1,4,9,104,103
CCN(CC)c1ccc(NC(=O)CN(C)Cc2ccccc2C)cc1,-11,19,105,101
Cc1nc(-c2ccccc2)sc1-c1nnc(-c2cccc3ccccc23)o1,12,35,104,113
CC1(C)CC(NC(=O)Cc2ccc(Cl)cc2)CC(C)(C)N1,-18,-3,102,103
COc1ccc(-c2cc(C(F)(F)F)nc(SCC(=O)Nc3cn(C)nc3C)n2)cc1OC,-14,-14,99,101
CCOC(=O)C1CCN(C(=O)Cc2ccccc2OC)CC1,-25,10,106,103
O=C(NN1CC(=O)N(C2CCCC2)C1=O)C(c1ccccc1)c1ccccc1,-33,-4,102,100
CC(=O)Nc1ccc(C(=O)CSc2nc3ccccc3c(=O)n2CC2CCCO2)cc1 (stereo not drawn),-16,10,100,103
CC1CC(=O)c2cnn(-c3nc4ccccc4s3)c2C1 (stereo not drawn),3,-2,101,104
COC(=O)Nc1ccc(S(=O)(=O)N2CCCCC2)cc1,-46,-20,106,100
CCOc1ccc(S(=O)(=O)NCC(c2ccc(N(C)C)cc2)N(C)C)cc1 (stereo not drawn),11,20,101,95
COc1cccc(CSc2nncn3c2cc2oc(C)cc23)c1,-1,17,94,95
Cc1oc(-c2ccc(C(=O)O)cc2)nc1COc1ccccc1,-6,0,103,106
Cc1ccc(S(=O)(=O)c2nc(N3CCOCC3)sc2Cl)cc1,1,.,101,106
CCc1cc(C=Nc2ccccc2)c(O)s1,-28&-34,28&93,96&101,101&101
CCOC(=O)Cn1c(-c2ccc(Cl)cc2)csc1=Nc1ccc(F)cc1,-37,.,107,108
C[C@H](N)[C@H](O)c1cccc(O)c1,-8,3,98,103
CN(C(=O)CSc1nnc(-c2ccccc2)o1)C1CCS(=O)(=O)C1 (stereo not drawn),-19,6,102,106
O=C(Cn1c(CO)nc2ccccc21)Nc1ccccc1,.,-1,101,105
O=c1c(NCCCc2ccccc2)nccn1-c1ccc2c(c1)OCCO2,-9,-76,102,105
O=C1c2ccccc2C(=O)N1CCn1cnc2c(cnn2-c2cccc(Cl)c2)c1=O,-26,9,101,103
COc1ccc(-c2nc(SC(C)C(=O)O)c3c(=O)n(C)c(=O)n(C)c3n2)cc1 (stereo not drawn),-2,102,101,103
Cc1n(O)c2c(NO)ccc(N=O)c2[n+]1[O-],-42,-9,100,102
O=C(CN1CCSc2ccccc21)NCc1ccccc1,-12,-8,101,104
COc1nc(C)nc(N/C=C(\C#N)C(=O)C2CC2)n1,2,29,100,105
CCOC(=O)N1CCc2c(sc3ncn(Cc4ccc(Cl)cc4)c(=O)c23)C1,-3,-9,105,113
CCCN(CCC)c1ncnc2ccc(Br)cc12,-6,.,101,103
COC(=O)c1ccc(CSc2nnc(N)s2)o1,15,11,101,101
CCOC(=O)c1sc(Nc2ccc(C)cc2)c(C(=O)NCc2ccco2)c1N,-23,26,103,104
CC1Sc2ccc(S(=O)(=O)C(C)CC(=O)Nc3ccccc3F)cc2NC1=O (stereo not drawn),-8,11,101,105
Cc1ccc(OCCSc2nc(O)cc(=O)n2C2CCCC2)cc1,-101,-8,.,.
O=C(NCc1ccccc1)c1ccc2c(=O)n3nc(Nc4ccccc4)sc3nc2c1,7,38,98,101
CCOC(=O)c1c(C)nn(-c2ccc(N3C(=O)CCC3=O)cc2)c1C,8,-2,100,102
COC(=O)C1=C(C)NC2=C(C(=O)c3ccccc32)C1c1ccc(O)c(OC)c1 (stereo not drawn),-17,-11,100,98
CC1CCCC(NC(=O)CSc2ncnc3ccccc23)C1C (stereo not drawn),.,-7,102,105
CCN(CC)C(=O)Oc1ccc2c(C)c(-c3ccc(OC)cc3)c(=O)oc2c1,-21,106,104,106
CCN1C(=O)c2cccc3c(S(=O)(=O)N4CCc5ccccc54)ccc1c23,-10,11,100,103
O=C(NCCCNC1CCCCC1)c1cc2ccccc2[nH]1,-13,115,101,100
N#CCC(c1ccccc1)C(C#N)c1ccc(Br)cc1 (stereo not drawn),-19,.,109,102
O=C(Nc1ccc2[nH]c(=O)[nH]c2c1)NC1CCCCC1,21,3,90*,90*
# (further entries)
SMILES,Mtb MenB inh,Mtb MbtI inh,Polio RdRp inh,Polio RdRp inh intensity
COc1ccc(-c2nnc(SCCCn3c(=O)[nH]c4ccccc43)o2)cc1,-22,1,104,106
CCCc1cc(=O)oc2cc(C)c(CN3CCCC3)c(O)c12,-28,7,99,104
N#Cc1c(NC(=O)c2cc(-c3cccs3)on2)sc2c1CCC2,-15,82,97,101
CC(C)NC(=O)C(C)N1CCN(S(=O)(=O)c2ccc3ccccc3c2)CC1 (stereo not drawn),0,-4,97,100
COc1cccc(OCc2nnc(SCC(=O)O)o2)c1,-11,-7,104,103
CCCCNC(=O)c1ccc(N2CCCC2)c(NS(=O)(=O)c2ccc(C)cc2)c1,-26,-22,101,103
Cc1nn(C)c(=O)c2noc(/C=C/c3ccsc3)c12,8,8,102,102
COc1ccc(-c2noc(CNC(=O)/C=C/c3ccc(OC)c(OC)c3)n2)cc1,-18,33,102,101
CCNC(=S)N1CCN(CC(=O)Nc2cc(Cl)cc(Cl)c2)CC1,-8,0,101,103
CCCn1c(C)c(Br)c(=O)n(C(C)(C)C)c1=O,-10,-1,99,96
CC(C)=CCC(C)(C)C1OCCN1C(=O)Nc1ccccc1 (stereo not drawn),0,-8,101,102
Nc1nc(=O)c2cccnc2s1,-27,29,101,98
O=C(c1cnn2cc(Br)cnc12)N1CCCc2ccccc21,12,6,101,105
CCCCN=C1CCCc2ccccc2N1,-21,-16,100,107
O=C(N/N=C/c1ccccc1Cl)c1ccc(=O)[nH]n1,-14,-5,103,104
COC(=O)C1=C(C)N(c2ccc(N(C)C)cc2)C(C)=C(C(=O)OC)C1c1ccccc1,-25,1,103,100
O=C(CC1Sc2ccccc2NC1=O)OCc1nnc(-c2ccccc2)o1 (stereo not drawn),-3,-17,104,109
O=C(NCCc1ccccc1)c1cc(-c2ccco2)on1,-14,-9,98,99
CC(C)S(=O)(=O)c1cscc1NC(=O)Nc1ccccc1,8,-9,102,114

# Source: PubChem BioAssay (ICCB-Longwood Screening Facility, Harvard Medical School)
